# D2 ag: Beta-Arrestin HTS for Positive Allosteric Modulators of the Human D2 Dopamine Receptor: Agonists. actives 0.084% (n = 360,000). AID 624465, 2012. DiscoveRx PathHunter D2 beta-arrestin, luminescence, 90 min; 100% = 57 uM dopamine signal. activation, % (concentration not given with the values); in the data active = activation above about 40%; inconclusive = about 15% to 40%; inactive = below about 15%; note: compound concentration not given in the record; the text of the record calls up to 30% inactive
# Target sequence (P14416 whole entry, looked up): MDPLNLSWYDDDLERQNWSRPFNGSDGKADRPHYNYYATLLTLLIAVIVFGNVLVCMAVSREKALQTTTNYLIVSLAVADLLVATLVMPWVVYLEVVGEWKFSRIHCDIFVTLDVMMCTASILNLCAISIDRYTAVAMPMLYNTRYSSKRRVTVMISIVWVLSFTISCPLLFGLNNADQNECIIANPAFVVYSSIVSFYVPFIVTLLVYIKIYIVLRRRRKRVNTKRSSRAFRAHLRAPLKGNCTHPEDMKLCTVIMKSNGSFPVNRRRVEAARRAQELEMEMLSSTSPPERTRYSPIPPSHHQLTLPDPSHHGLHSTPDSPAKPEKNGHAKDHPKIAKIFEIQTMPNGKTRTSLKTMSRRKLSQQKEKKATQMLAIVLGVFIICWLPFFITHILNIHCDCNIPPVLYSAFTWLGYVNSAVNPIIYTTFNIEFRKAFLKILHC
#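 DiscoveRx PathHunter D2 beta-arrestin cells (2,100/well) attached overnight, then compound-stimulated 90 min at 37 C in HBSS/10 mM HEPES/0.1% Tween-20 buffer; beta-galactosidase complementation read by luminescence after 1 h at ambient temperature. Dopamine 57 uM final (EC100) as control.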
# gsp antag: qHTS for Antagonists of gsp, the Etiologic Mutation Responsible for Fibrous Dysplasia/McCune-Albright Syndrome: qHTS | gsp-mutant cells, cAMP HTRF, 30 min; control for the full effect not named in the record | Potency, µM (highest dose often 76.9 µM), without a hit: at the top dose activity change, negative = inhibition, hits mostly inhibitors | actives 0.4% (n = 340,000) | AID 624288, 2012; active = falling curve of any shape with a large fitted effect; inconclusive = falling curve, mostly with a smaller effect; inactive = flat or rising curve; cell line not stated here;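 note: intracellular cAMP measured with PDE inhibitor Ro 20-1724 present during compound exposure; potency is the fitted concentration of half-maximal effect; % is set by controls: 0 for no effect and ±100 for the full control effect; nearly all actives have a fitted effect of over 65% in size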
#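 G418-selected cells were plated in DMEM/10% FBS for 16-24 h at 37C, then treated with compounds plus the PDE inhibitor […] (300 uM solution added) for 30 min at 37C. Intracellular cAMP was measured by HTRF after 30 min lysis at room temperature.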
# Menin MLL FP FL: qHTS Assay for Inhibitors Targeting the Menin-MLL Interaction in MLL Related Leukemias: Competition With Fluorescein Labeled MLL-derived Peptide | Fluorescence polarization, fluorescein-MLL peptide displacement from menin | FP activity change, % at 61.4 µM | 290,000 tested, under 10 active | AID 1766, 2009; inconclusive = falling polarisation curve, or a change in total fluorescence; inactive = total fluorescence flat and polarisation flat or rising; no compound was filed as active; the % refers to the polarisation; negative = inhibition;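 note: % of control where 0% means no effect; inhibitors lower the polarisation; unlabelled MLL peptide was the positive control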
# PINK1 expr mod: A Quantitative High throughput Screen to Identify Chemical Modulators of PINK1 Expression; PINK1 immunofluorescence, high-content cytometry, 24 h; actives 0.2% (n = 410,000); Potency, µM (doses to about 76.6 µM), for inactives: at the top dose activation (PINK1 increase), actives largely listed as activators; AID 624263, 2012; active = well fitted activation curve with a large enough effect; inconclusive = small, poorly fitted or top-dose-only effect; inactive = flat fitted curve, though single readings scatter; cell line not stated here;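 note: potency is the fitted concentration of half-maximal effect; % of control where 0% means no effect; nearly all actives have a fitted effect of over 65% in size; a mitochondrial uncoupler was the plate control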
#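 Decision-based qHTS: stable cells, 24 h exposure to five compound concentrations, CCCP as control. Fixed cells stained for PINK1 plus nuclear, mitochondrial and cell markers, cytometer read.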
# Sfp inh: qHTS Assay for Inhibitors of Bacillus subtilis Sfp phosphopantetheinyl transferase (PPTase); Biochemical Sfp PPTase activity, qHTS; 4'-phosphopantetheinyl transferase ffp (Bacillus subtilis), Q9F4F7; AID 1490, 2009; actives 3.5% (n = 310,000); Potency, µM, for inactives: max response, negative = inhibition, hits mostly inhibitors; active = well fitted inhibition curve with a large enough effect; inconclusive = small, poorly fitted or top-dose-only effect, or another doubt; inactive = no such curve, though single readings can be large or run the other way;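 note: the enzyme is Sfp with the accession as filed and its product quenches rhodamine fluorescence; potency is the fitted concentration of half-maximal effect; 0% = enzyme reaction without inhibitor and -100% = no enzyme wells; top concentration of the series not given in the record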
#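 After 15 min at room temperature with compound, 15 nM Sfp received 5 uM rhodamine-CoA plus 12.5 uM BHQ-2-ybbR (50 mM Hepes pH 7.6, 10 mM MgCl2). Rate came from the fluorescence difference over 30 min, ex 525/em 598 nm.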
# ClpP mod: qHTS Assay for Activators of ClpP. ATP-dependent Clp protease proteolytic subunit (Bacillus subtilis (strain 168)), P80244. purified B. subtilis ClpP, FRET peptide cleavage, 20 min. Potency, µM (series often up to 57.5 µM), for inactives: top-dose activity change, negative = active. actives 1.9% (n = 340,000); active = well fitted falling curve with a large enough effect; inconclusive = small, poorly fitted or top-dose-only effect; inactive = no such curve, though single readings can be large or run the other way; note: potency is the fitted concentration of half-maximal effect; the source files actives as falling curves though it sought activators and does not explain the sign; nearly all actives have a fitted effect of over 65% in size; many hits overshoot -100%
# Target sequence (P80244 whole entry, looked up): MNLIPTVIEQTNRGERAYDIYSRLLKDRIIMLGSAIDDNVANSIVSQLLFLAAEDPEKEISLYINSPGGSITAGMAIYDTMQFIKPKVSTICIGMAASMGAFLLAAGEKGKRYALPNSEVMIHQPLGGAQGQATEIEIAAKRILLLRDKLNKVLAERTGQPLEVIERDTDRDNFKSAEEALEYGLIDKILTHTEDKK
#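 FRET quenching reversal measured ClpP activation: 10 microg/mL B. subtilis ClpP at pH 8 with the FRET-FV decapeptide, read at 430 nm after 320 nm excitation. The 20-min minus 0-min signal was scaled between DMSO/no-enzyme wells and ADEP (5.8 microM final).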
# gsp ag: qHTS for Agonist of gsp, the Etiologic Mutation Responsible for Fibrous Dysplasia/McCune-Albright Syndrome: qHTS; actives 0.13% (n = 340,000); gsp mutant cells, cAMP HTRF, 30 min; control for the full effect not named in the record; Potency, µM (highest dose often 76.9 µM), for inactives: at the highest dose activation (cAMP increase), hits mostly activators; active = well fitted activation curve with a large enough effect; inconclusive = small, poorly fitted or top-dose-only effect, or another doubt; inactive = no such curve, though single readings can be large or run the other way; cell line not stated here;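 note: phosphodiesterase inhibitor Ro 20-1724 added with compounds to block cAMP breakdown; potency is the fitted concentration of half-maximal effect; nearly all actives have a fitted effect of over 60% in size; about a fifth of the inactives were tested at one dose only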
#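 Cells stably selected in G418 were plated at 2000/well, grown 16-24 hr, then given compounds in DMSO with the PDE inhibitor […] (300 uM solution added) for 30 min at 37C; cAMP was read by HTRF.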
# An asterisk follows results filed as active; ? = inconclusive; / = no result given; & = joins results of further samples; [ ] = remark or other dose. Rows were taken by chance; overall some 5.1% were active at least once.
molecule,D2 ag,gsp antag,Menin MLL FP FL,PINK1 expr mod,Sfp inh,ClpP mod,gsp ag
COc1cccc(NC(=O)CN(C)C(=O)c2ccc(-c3cccc(C(F)(F)F)c3)o2)c1,-2.0,-11%,/,10.0%,/,4.0%,-15%
COc1cccc(NC(=O)Cn2c(CCC(=O)O)ccc2-c2ccc(Cl)cc2)c1,-2.9,-13%,-1.6,-0.3%,-6%,/,-5%[15.4 µM]
C[N+]1([O-])[C@@H]2Cc3cc4c(cc3[C@@H]1Cc1cc3c(cc12)OCO3)OCO4 (stereo partly specified),0.5,9%,1.2,-0.8%,12%,-0.9%,/
COc1cc(OC)c(OC)cc1CN(C)CCc1ccccn1,-1.0,10%,0.7,-2.4%,?,0.0%,7%
Cc1cccc(C)c1NC(=O)C(c1ccccc1)N1CCN(c2ccc(F)cc2)CC1 (stereo unspecified),-2.6,/,/,11%,/,-3.9%,/
O=C(NCc1ccccc1F)c1ccc2c(c1)OCO2,1.5,9%,-3.3,-0.4%[38.3 µM],1%,-9.4%,13%
CC(=O)c1ccc(Sc2ccccc2)cc1,-2.2,14%,6.0,-4.0%,-20%,0.0%,21%
CCN(C(=O)c1ccco1)C1C2CC3CC(C2)CC1C3 (stereo unspecified),0.5,6%,/,3.6%,10%,-3.4%,-5%
O=C(CSc1nnnn1C1CCCCC1)Nc1cccc(NC(=O)c2ccco2)c1,-0.9,1%,2.4,1.4%,17%,-0.1%,?
CC(C)Nc1nnc(SCC(=O)c2c[nH]c3ccccc23)s1,-5.3,-2%,-3.0,0.6%,-22%,2.7%,5%
Cc1noc(C)c1COC(=O)CN(C)S(=O)(=O)c1ccc(Cl)cc1,-0.4,-11%,1.9,1.3%,-12%,-5.6%,1%
COc1ccc(N2CCN(c3nc4c(c(=O)n(C)c(=O)n4C)n3CCCc3ccccc3)CC2)cc1,1.7,-2%,4.0,3.4%,0%,1.0%,-42%[inhibitor]
CC1(C)CC(NS(=O)(=O)c2ccc(C(C)(C)C)cc2)CC(C)(C)N1,-1.6,10%,-1.1,1.0%,-14%,/,-29%
CC(Cc1ccccc1)N1CCCC1=O (stereo unspecified),-4.4,11%,/,-0.8%,/,3.6%,-15%
O=C1CN(S(=O)(=O)c2cccc(Cl)c2Cl)CCN1,3.1,12%,/,5.7%,/,0.2%,-42%[inhibitor]
CC(C)(C)c1ccc(-c2noc(-c3ccno3)n2)cc1,-5.7,-20%,2.9,14%,3%,1.5%,-4%[15.4 µM]
CC1S/C(=N/N=C/c2ccco2)N(Cc2ccc(F)cc2)C1=O (stereo unspecified),4.3,-6%,-0.3,4.2%,-7%,-1.2%,-11%
O=C(c1ccc(Cl)c(S(=O)(=O)N2CCOCC2)c1)N1CCCCCC1,-2.3,4%,-4.3,1.4%,19%,/,19%
O=C(Nc1ccccc1)C1=C[C@@H](c2coc3ccccc3c2=O)C[C@@H](OCc2ccc(CO)cc2)O1,-1.4,-21%,3.3,0.0%,5%,-3.4%,/
COCCN1C(=O)N[C@@H](c2cccc(C(F)(F)F)c2)[C@H](C(=O)OC)[C@H]1C,0.1,4%,1.1[11.7 µM],0.6%,12%,1.9%,?
COc1cccc(C(=O)COC(=O)C(C)N2C(=O)c3ccccc3C2=O)c1 (stereo unspecified),-2.4,-23%,-1.2,2.3%[38.3 µM],2%,-3.5%,-28%
CNC(=S)NNC(=O)c1ccc(C(C)(C)C)cc1,0.0,-4%,0.7,-0.4%,8%,5.9%,11%
COc1ccc(S(=O)(=O)Nc2cc(S(=O)(=O)N3CCOCC3)ccc2OC)cc1,4.9,-9%,/,3.9%,/,1.5%,-41%
O=c1c2ccccc2nc2n1C(CSCc1ccccc1)CS2 (stereo unspecified),-1.9,-12%,-2.1,0.8%,-6%,-2.5%,27%
COc1ccccc1C1C(C#N)=C(N)Oc2c1c(-c1ccccc1)nn2-c1ccccc1 (stereo unspecified),-1.2,?,2.5,?,24%,15%,4%
Cc1noc(C)c1-c1nc(NCCN2CCOCC2)c2ccccc2n1,/,/,-4.6,-0.1%,-29%,/,/
COc1cccc(-c2cc3nc4c(c(N5CCC6(CC5)OCCO6)n3n2)CCCC4)c1,1.4,2%,6.1,?,?,?,-47%[inhibitor]
CC(=O)NC(CC(=O)Nc1ccc(S(=O)(=O)Nc2nccs2)cc1)c1ccccc1 (stereo unspecified),-5.1,3%,/,-1.1%,/,-0.3%,-7%
CN1CCN(c2ccc([N+](=O)[O-])cc2/C=N/NC(=O)c2ccc(F)cc2)CC1,-6.4,-6%,-1.8,6.5%,-12%,-0.7%,-2%[15.4 µM]
CC(C)n1ncc2c(C(=O)Nc3ccc(S(C)(=O)=O)cc3)cc(C3CC3)nc21,-1.8,-16%,/,-0.9%,/,-13%,16%
COCCCNC(=O)CN1C(=O)CSc2ccc(S(=O)(=O)N3CCOCC3)cc21,-1.1,10%,-2.2,3.4%&-0.4%,17%,2.1%&-3.9%,-2%
Cc1ccc(OCCC(=O)OCC(=O)Nc2ccc(C)cc2Cl)cc1,-4.5,1%,/,?,/,-1.6%,-4%
N#Cc1c(Cl)nsc1NCCN1CCOCC1,1.3,3%,0.2,0.7%,13%,0.5%,?
CCN1C(=O)C(CC(=O)Nc2ccc(F)cc2)N(Cc2ccco2)C1=S (stereo unspecified),-2.2,2%,-1.4,2.1%,-22%,-1.0%,7%[15.4 µM]
COc1ccc(/C=N/NC(=S)NCC2CCCO2)cc1 (stereo unspecified),1.6,2%,-0.5,-0.6%,18%,-8.6%,-4%[15.4 µM]
Cc1ccc(OC(=O)COc2ccccc2)c(-n2nc3ccccc3n2)c1,1.8,-20%,-6.6,0.8%,?,32µM*,4%
CC(=O)Nc1ccc(S(=O)(=O)c2ccc(N)cc2)cc1,-4.5,-3%,-3.4&-3.7,6.7%,14%&-6%,-0.4%,/
CC(=O)c1ccc2c(c1)CCN2,-1.3,0%,/,5.1%,/,-15%,-13%
Cc1ccc(SCc2ccc(C(=O)NCc3cccnc3)cc2)cc1,1.3,-12%,3.4,1.0%,-24%,-2.3%,-9%
Cc1cccc2cc(C#N)c(NCCNC(=O)c3ccccc3)nc12,-3.7,/,/,2.8%,/,-19%,-50%[inhibitor]
O=C(COC(=O)/C=C/c1cccc([N+](=O)[O-])c1)NCc1ccco1,6.2,-4%,-2.4,2.0%,1%,0.2%,-77%[inhibitor]
CCC(C(=O)OC)n1cnc2c(cnn2-c2ccc(Cl)cc2)c1=O (stereo unspecified),-1.4,-1%,-0.3,-0.7%,3%,-14%,-48%[inhibitor]
COc1ccc(-c2csc3ncn(CC(=O)N4CCOCC4)c(=O)c23)cc1,-0.1,-2%,5.1,-0.5%,3%,-9.4%,?
O=C(O)CC/C(=N/NC(=O)CNC(=O)Cc1ccccc1)c1ccccc1,-4.4,8%,5.8,1.4%,8%,-1.6%,-8%
C/C(O)=c1/c(=O)nc2cccc3c2=c1c1ccccc1c3=O,0.4,6%,-6.0,-1.1%,5%,-0.8%,-13%[15.4 µM]
O=S(=O)(c1cccc(F)c1)N1CCN(C(=S)NCc2ccccc2)CC1,-2.4,17%,6.0,-0.1%,26%,/,-7%[15.4 µM]
Cn1c(SCC(=O)NCC2CCCO2)nnc1-c1c[nH]c2ccccc12 (stereo unspecified),-0.7,5%,0.4,2.4%,7%,-0.3%,15%
COc1ccc(-n2ncc3c2CC(C)(C)CC3NC(=O)CCC2=NNC(=O)CC2)cc1 (stereo unspecified),-0.9,5%,/,1.2%,12%,1.3%,1%
O=[N+]([O-])c1ccc(NCCCNS(=O)(=O)c2ccccc2)c(Cl)c1,-2.7,-12%,6.9,-0.9%,-12%,1.9%,-16%
CC(=O)Nc1c(C(=O)O)ccc(C)c1OCc1ccccc1,-3.8,13%,/,0.1%,/,0.7%,1%[15.4 µM]
CCOc1ccccc1C(=O)N(C)Cc1cc2cc(OC)ccc2[nH]c1=O,-8.0,0%,0.0,1.4%,8%,32µM*,-7%
O=C(CN1C(=O)NC(Cc2c[nH]c3ccccc23)C1=O)Nc1ccc(Br)cc1F (stereo unspecified),-4.2,-3%,/,4.4%,/,1.8%,22%
CSc1nsc(SC)c1C(=O)NC(=O)Nc1cccnc1,-4.3,7%,-9.0,-0.7%,18%,-5.3%,20%
COc1cc(/C=C2\CCc3c2nc2ccccc2c3C(=O)O)cc(OC)c1OC,-3.6,6%,7.6,0.6%,?,-6.5%,?
COc1ccc(CN2C(=O)C(C)S/C2=N/N=C/c2ccco2)cc1 (stereo unspecified),-2.4,-4%,6.4,1.8%,-4%,-0.4%,-13%
Cc1cc(C)c(S(=O)(=O)N2CCCC2=O)c(C)c1,-4.1,6%,-3.0,2.8%,4%,/,1%[15.4 µM]
COc1ccccc1OCC(=O)c1[nH]c(C)c(C(C)=O)c1C,0.3,25µM*,5.3,-0.8%,9%,-0.8%,2%
NC(=O)C1=CC2C3C=CC2(O)C(=O)OC3O1 (stereo unspecified),-1.0,7%,/,-4.4%,/,-0.9%,13%
CCOC(=O)C/C(C)=N\Nc1ccc([N+](=O)[O-])cc1[N+](=O)[O-],-2.7,?,1.6,-0.5%,-7%,/,10%[15.4 µM]
COc1ccc(CN2CCN(C(=O)c3cccc4ccccc34)CC2)c(OC)c1OC,-2.7,-3%,3.2,-0.7%,-21%,1.5%,-27%
